Screening results from PubChem BioAssay.
PABP polyA inh: PABP poly(A) RNA binding inhibitors, primary screen, biochemical, fluorescence polarization, uHTS | Polyadenylate-binding protein 1 (Homo sapiens), P11940 | inhibition, % at 35 µM | 1% of 290,000 active | AID 2014, 2009;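 active = 50% or more with normal probe brightness, or confirmed in later tests; inconclusive = above 50% with abnormal brightness, or retests that disagree; inactive = below 50% or failed in later tests; about a fifth of its hits are not listed in these tables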;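 note: calls also rest on retests at 20 µM and on dose response follow-up; controls were probe without protein and protein plus probe with vehicle; some compounds called inactive have numbers as strong as hits; many hits fall short of the cut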
Target sequence (P11940 whole entry, looked up): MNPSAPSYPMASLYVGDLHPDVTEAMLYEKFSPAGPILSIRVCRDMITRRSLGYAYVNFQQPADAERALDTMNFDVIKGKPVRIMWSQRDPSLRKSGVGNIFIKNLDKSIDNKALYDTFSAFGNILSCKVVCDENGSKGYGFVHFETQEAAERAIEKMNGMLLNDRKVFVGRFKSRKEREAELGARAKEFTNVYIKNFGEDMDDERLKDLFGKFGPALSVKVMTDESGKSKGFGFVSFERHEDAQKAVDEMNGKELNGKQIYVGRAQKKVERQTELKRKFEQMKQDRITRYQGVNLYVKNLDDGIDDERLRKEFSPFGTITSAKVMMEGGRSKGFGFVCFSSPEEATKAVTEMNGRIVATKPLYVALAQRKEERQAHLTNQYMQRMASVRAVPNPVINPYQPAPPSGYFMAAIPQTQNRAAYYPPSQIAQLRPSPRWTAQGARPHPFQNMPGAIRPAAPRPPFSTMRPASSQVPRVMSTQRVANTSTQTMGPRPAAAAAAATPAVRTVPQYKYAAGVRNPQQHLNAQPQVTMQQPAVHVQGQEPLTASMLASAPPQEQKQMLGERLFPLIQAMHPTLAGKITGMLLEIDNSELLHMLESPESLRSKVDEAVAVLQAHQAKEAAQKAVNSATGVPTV
eIF4H inh: human eIF4H binding inhibitors, primary screen, translation initiation inhibitor project, biochemical, uHTS, fluorescence polarization; eIF4H fluorescence polarization binding assay; inhibition, % at 35 µM; 0.94% of 290,000 active; AID 2012, 2009;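 active = 50% or more with normal probe brightness, or confirmed in later tests; inconclusive = above 50% with abnormal brightness, or retests that disagree; inactive = below 50% or failed in later tests; about a fifth of its hits are not listed in these tables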;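 note: calls also rest on retests at 20 µM and on dose response follow-up; 0% = protein and probe with vehicle and 100% = probe without protein; strong numbers were not always called active; many hits fall short of the cut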
HIV Env fusion: inhibitors of HIV-1 Env-driven cell-cell fusion, primary screen, HeLa-JRFL effector, CEM21 target cells, luciferase. 1.1% of 360,000 active. AID 651610, 2012. inhibition, % at 12.3 µM;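 active = mean replicate inhibition score of at least 50 and every replicate individually at or above 50; inconclusive = only one of the two criteria met; inactive = mean below 50 and not all replicates reaching 50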;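 note: 0% = plate neutral controls and 100% = maraviroc near 300 nM; one replicate is shown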
Rce1 inhib: yeast Rce1p protease inhibitors, primary screen, biochemical, fluorescence, cell-free homogeneous. yeast membranes, quenched prenylated peptide cleavage fluorescence. calls only. 0.27% of 290,000 active;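 active = fall in fluorescence gain of 50% or more versus controls, with final raw signal at or below 3038400; inconclusive = same 50% fall but final raw signal above 3038400; inactive = fall in fluorescence gain under 50%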;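 note: plate controls were neutral control wells for no effect and wells lacking membranes for full effect; tested at 10 µM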
CSC inhib: cancer stem cell viability inhibitors, primary screen, luminescence | inhibition, % at 7.5 µM | cancer stem cell-like cells viability | 1.1% of 300,000 active;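 active = mean at 75% or more and at least half the replicates too; inconclusive = mean and replicates disagree; tested in HMLE shEcad cells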;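 note: 0% = median of negative and 100% = median of positive control wells; the first replicate is given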
UUG fidelity: modulators of yeast start codon fidelity, primary screen, whole organism, S. cerevisiae, single point, plate reader | S. cerevisiae UUG-firefly luciferase reporter, luminescence/redox ratio | activity score, % at 18.7 µM | 0.13% of 350,000 active | AID 602363, 2012;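 active = replicate mean at a twofold rise or more, about +100% in these data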;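 note: firefly luciferase made from a UUG start codon reports start codon fidelity; reporter light over untreated wells divided by growth signal over untreated wells; some hits fall short of that in this replicate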
MT1-MMP act inh: blockers of MT1-MMP proenzyme processing, primary screen, HT1080 RFP-PRO-GFP cells, GFP/RFP fluorescence; Matrix metalloproteinase-14 (Homo sapiens), P50281; GFP/RFP ratio fluorescence, overnight; percent of plate control window, DMSO zero; GFP/RFP ratio change, % at 20 µM; 0.061% of 360,000 active;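 active = GFP/RFP ratio change of at least 30% with cell ATP level not reduced by more than half and red fluorescence within 50% of control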; note: strong numbers were not always called active
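Assay system: RFP-PRO-GFP reporter HT1080 cells; read-out basis: GFP/RFP fluorescence ratio; benchmarks: DMSO wells and RFP-L50D-GFP cells; doses: 20 µM single dose, 1% DMSO; schedule: overnight cell settling, then overnight compound exposure, 37 °C, 5% CO2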
MT1-MMP act inh RFP: second read-out of MT1-MMP act inh, no call of its own (marks repeat the call); RFP signal change, %; measured here: RFP expression control read;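 0 = vehicle wells; hits needed this value within 50% of zero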
* = called active by the depositor; i = inactive; ? = inconclusive; . = not tested or not shown. Compounds as they come; overall some 2.9% were active at least once.

Screens in order – PABP polyA inh, eIF4H inh, HIV Env fusion, Rce1 inhib, CSC inhib, UUG fidelity, MT1-MMP act inh, MT1-MMP act inh RFP
> COc1ccc(C(C)(C)C)cc1NC(=O)CN(C)C1=NS(=O)(=O)c2ccccc21
→ ., ., 64*, ., ., -6, -2, -1
> Cc1cc(/C=N/Nc2nc(N)ncc2[N+](=O)[O-])c(C)n1-c1ccccc1F
→ 14, 4, ., i, 4, ., ., .
> COc1cc(/C=N/O)ccc1OCc1ccc(C(=O)O)cc1
→ -1, -10, 113*, i, -10, -81, -3, -1
> CCN=C1S/C(=C\c2cn(C(C)=O)nc2-c2ccccc2)C(=O)N1CC
→ -13, 0, -108, i, -2, -3, 5, -5
> COCCN1Cc2cccc(C(=O)Nc3cccc(OC)c3)c2C1=O
→ 5, 2, ., i, 18, -8, 10, 0
> CCOC(=O)c1nn(-c2ccccc2)c2nnc(Cc3ccc(Cl)cc3)c(=O)n12
→ -10, 0, -1, i, 11, ., 2, 5
> Cc1ccc(CCNC(=O)C2CCC(=O)N(Cc3cccc(F)c3)C2)cc1 (stereo unspecified)
→ 9, 14, -22, i, -9, 1, 1, -1
> CC(C)c1ccc(CN(C(=O)c2cccs2)C2CCS(=O)(=O)C2)cc1 (stereo unspecified)
→ -5, 4, 15, i, -11, -5, -5, -3
> CCN(CCCNC(=O)CCc1nc(-c2ccc(OC)cc2)no1)c1cccc(C)c1
→ 3, 0, ., i, 0, -12, -1, -8
> O=C(CSc1ccc(Cl)cc1)Nc1cc(-c2nc3ncccc3o2)ccc1Cl
→ -1, 7, -11, i, 2, ., ., .
> COc1ccc(CC(=O)Nc2sc3c(c2C(N)=O)CCCC3)cc1
→ 3, 6, -18, i, -9, -6, 0, -10
> COCCCNc1nnc(Cc2ccc(Cl)cc2)c(=O)[nH]1
→ -4, 0, -129, i, ., -3, 0, -10
> COc1ccc(-c2noc(CN(C(=O)c3ccc4c(c3)OCO4)C(C)C)n2)cc1OC
→ ., ., ., i, -12, -8, 1, 0
> COc1ccc(-c2c3c(cc4ncn(Cc5ccccc5)c24)COC3=O)cc1
→ ., ., 6, ., -13, -1, -11, -4
> CCS(=O)(=O)c1ccc(C(=O)Nc2ccccc2OC)c(Cl)c1Cl
→ -4, -7, -9, i, 2, ., 2, 1
> C=CC[C@]12C[C@@H](OC)C(=O)C=C1O[C@@H](c1ccc(OC)c(OC)c1)[C@H]2C
→ ., ., ., i, -6, -7, 3, -1
> O=C(CCS(=O)(=O)c1ccccc1)Nc1ccccn1
→ 10, 3, -7, i, ., -19, 0, 3
> CCCNC(=O)c1onc(CS(=O)(=O)c2cc(C)cc(C)c2)c1C(=O)NCCC
→ ., ., 43, ., ., -2, 4, -1
> Cc1cccc(OCCOC(=O)c2ccc(F)c(S(=O)(=O)N3CCOCC3)c2)c1
→ ., ., 1, ., -15, -11, 1, -2
> COc1ccc(C(=O)CCS(=O)(=O)c2ccc(F)cc2)cc1OC
→ -1, 1, -7, i, 18, -13, 1, 3

Continuation.
Screens in order – PABP polyA inh, eIF4H inh, HIV Env fusion, Rce1 inhib, CSC inhib, UUG fidelity, MT1-MMP act inh, MT1-MMP act inh RFP
> c1cnc2ccc(-c3ccc4ncccc4c3)cc2c1
→ 3, 4, -145, i, 31, -30, -4, -8
> CCCCCCC/C(C)=N/NC(=O)CC(=O)NCCc1ccccc1
→ 15, 0, -13, i, -25, -14, -1, 0
> Cc1ccc(-c2cc3nc(C)cc(C)n3n2)cc1
→ -5, -5, -92, i, 1, -7, 8, 7
> COCc1nc2ccccc2n1Cc1ccc(Br)cc1
→ -9, -4, ., i, -5, -28, -1, -3
> COc1ccc(S(=O)(=O)N(C)CC(=O)N2CCN(Cc3ccccc3)CC2)cc1C
→ -10, -3, 16, i, 1, 1, 2, -4
> NC(=O)c1ccc(NC(=O)CS(=O)(=O)c2cn(CC(=O)N3CCCCC3)c3ccccc23)cc1
→ -11, -4, 7, i, -3, -21, 0, 3
> Cc1ccc(/C=N/Nc2nncc(-c3ccccc3)n2)o1
→ 6, -1, 1, i, ., ., 0, -5
> Cc1cc(C(=O)CNCc2ccco2)c(C)n1-c1ccc(F)cc1
→ 32, 16, -26, i, 6, -25, -6, 3
> C/C(=N\NC(=O)NC1CCCCC1)C1CCCCC1
→ -5, 2, 2, i, -11, ., -7, -5
> CC(C)NC(=O)c1ccc(-c2ccccc2C(F)(F)F)o1
→ -6, 5, ., i, -8, -3, 1, -5
> OCCC1CN(Cc2cccc3c2OCO3)CCN1C1CCCCC1 (stereo unspecified)
→ 1, -2, 9, i, 5, ., -5, -8
> COc1ccccc1OCCNC(=O)C(CCSC)NC(=O)COc1ccccc1 (stereo unspecified)
→ ., ., -30, ., ., -10, -1, 2
> Cc1cc(/C=C2\SC(=O)N(C)C2=O)c(C)n1-c1ccc(O)cc1
→ 7, 12, -257, i, -5, -58, 0, -8
> S=C(NCc1ccc2c(c1)OCO2)Nc1ccc2nsnc2c1
→ -5, -1, -4, i, -4, -16, -6, 0
> CNC(=O)c1nn(-c2ccc(C)cc2)ccc1=O
→ -6, -4, ., i, -5, 9, 3, 2
> CCOC(=O)C1=C(C)NC(=O)NC1c1ccc(OCC(=O)OC)c(OC)c1 (stereo unspecified)
→ -13, 4, ., i, 8, -17, ., .
> Cn1c(=O)c2c(ncn2CC(=O)OCC(=O)c2ccc(Br)cc2)n(C)c1=O
→ ., ., -15, ., ., -4, 0, 3
> CCCCN(C(=O)/C=C/c1ccccc1)C1CCS(=O)(=O)C1 (stereo unspecified)
→ ., ., 2, i, -2, ., 2, 3
> Cc1c(C(=O)N2CCCCCC2)c(S(=O)(=O)Nc2ccc(F)cc2)c(C)n1C
→ 2, -12, 4, i, -12, 3, 0, -1
> CC(C)N1C(=O)c2ccccc2N(Cc2ccccc2)S1(=O)=O
→ -1, 6, 20, i, -8, -5, 0, -3

(continued)
Screens in order – PABP polyA inh, eIF4H inh, HIV Env fusion, Rce1 inhib, CSC inhib, UUG fidelity, MT1-MMP act inh, MT1-MMP act inh RFP
> CC(NC(=O)c1ccc(Br)cc1Br)c1ccccc1 (stereo unspecified)
→ 4, -1, 8, i, -7, ., 2, 2
> CC1=C(C)C(=O)N(c2ccc(C(=O)O)cc2)C1=O
→ 0, -2, ., i, ., 1, 4, 4
> Cn1cc(S(=O)(=O)N2CCN(c3cccc(Cl)c3)CC2)c(=O)n(C)c1=O
→ 7, -5, -23, ., -8, ., -1, -1
> Cc1ccc(S(=O)(=O)N2CCCC(C(=O)NCC3COCCO3)C2)cc1 (stereo unspecified)
→ -10, 3, ., i, -1, -4, 5, 2
> CCc1cccc(NC(=O)CSCc2cc(=O)[nH][nH]2)c1
→ 17, 2, 10, i, 12, -17, 8, 2
> Cc1cc2oc(=O)cc(C)c2cc1NC(=O)CCC(=O)O
→ 2, 0, ., i, -17, -15, 6, 7
> CCN(CC)C(=O)c1[nH]cnc1C(=O)N[C@@H](Cc1ccccc1)C(=O)OCc1ccccc1
→ -6, 2, -3, i, -10, -6, 1, 10
> O=C(c1cc[n+]([O-])cc1)N1CCc2c([nH]c3ccccc23)C1c1ccccc1Cl (stereo unspecified)
→ -5, 0, 10, i, -3, -15, 3, 6
> CC(C)=CC(=O)OCC(=O)Nc1ccc(Cl)cc1
→ 4, 8, -9, i, 9, -18, 3, 0
> CCCOc1ccc(CC(=O)NCc2ccco2)cc1OC
→ -2, 8, ., i, -1, 13, 8, 6
> CCCN1C(=O)C(=O)N(CC(=O)c2cc(C)n(C3CC3)c2C)C1=O
→ ., ., -36, ., ., -7, 0, -1
> COC(=O)c1ccc(CN2CCC(Oc3cccc(C(=O)N4CCOCC4)c3)CC2)cc1
→ 6, 9, 15, i, -2, 0, 4, -5
> COc1ccc(NC(=O)c2c(C(F)(F)F)nn(C)c2SCc2ccccc2)cc1
→ -2, -4, 25, i, 23, -14, -2, -3
> Cc1nnc(SC(C)C(=O)N2CCc3ccccc32)s1 (stereo unspecified)
→ -6, 6, ., i, 0, -18, 0, 1
> Cc1cccc(OCC(=O)NC(=S)Nc2ccccc2N2CCOCC2)c1
→ -8, -3, 7, i, -15, ., -1, 1
> Cc1cc(C)cc(-n2ncc3c2CCCC3NC(=O)CN2CCCCC2=O)c1 (stereo unspecified)
→ 4, -7, -11, i, 5, -12, -1, -1
> O=C(NCc1ccco1)C1Cc2ccccc2CN1S(=O)(=O)c1ccccc1F (stereo unspecified)
→ ., ., 4, ., ., -15, -5, 1
> COc1ccc(CN(C)CC(=O)c2c(N)n(Cc3ccccc3)c(=O)n(C)c2=O)c(OC)c1
→ 5, 0, -5, i, -2, -5, 0, 2
> C[C@H](NC(=O)c1nc[nH]c1C(=O)N[C@@H](Cc1ccccc1)C(=O)OC(C)(C)C)c1ccccc1
→ 6, 6, -17, i, 48, 3, -9, -16
> CC(C)(C)c1ccc(C(=O)N/N=C/c2ccccn2)cc1
→ 6, 10, 3, i, 26, -13, 2, -2

Continued:
Screens in order – PABP polyA inh, eIF4H inh, HIV Env fusion, Rce1 inhib, CSC inhib, UUG fidelity, MT1-MMP act inh, MT1-MMP act inh RFP
> CCOc1ccc(S(=O)(=O)N2CC(=O)Nc3ccccc32)cc1
→ 9, -7, -16, i, 23, -16, -5, -4
> Cc1noc(NS(=O)(=O)c2ccc(NC(=O)c3cc(-c4ccccc4Cl)nc4ccccc34)cc2)c1C
→ -27, 9, 13, i, 2, ., -1, -1
> CC(=O)c1c(C)[nH]c(C(=O)Nc2cc(F)ccc2C)c1C
→ 4, -7, ?, i, 24, -19, 0, 1
> Cc1cc(NC(=O)CSc2nnc(CNC(=O)c3ccc(C(C)(C)C)cc3)o2)no1
→ -10, 3, 5, i, -2, -13, -1, 0
> NCCNc1ccc2nnnn2n1
→ -9, 21, 13, i, -4, ., -4, 3
> O=C1C/C(=C/NCc2ccccc2)C(=O)N1
→ -6, -4, ., ., -15, -10, -1, 2
> CN(C)c1ccc(-c2[nH][nH]c(=O)c2NC(=O)c2ccc3ccccc3n2)cc1
→ ., ., -33, ., ., -11, 1, 3
> C=CCn1c(SCc2nc3ccccc3[nH]2)nnc1-c1ccccn1
→ -4, 4, 4, i, 1, -13, 6, -1
> CNC(=S)N1CCN(c2nc(-c3ccc(Cl)cc3)cs2)CC1
→ 11, -7, 29, i, -7, -26, 4, -19
> CC1(C)C(=O)Nc2ccccc2N1C(=O)COC(=O)Cc1ccccc1F
→ ., ., ., ., -3, 10, 2, 9
> Cc1ccc(S(=O)(=O)N(C)C)cc1NC(=O)C(C)OC(=O)C1CCCC1 (stereo unspecified)
→ ., ., -4, i, 3, -6, 0, 4
> CCOc1ccccc1C(=O)N(Cc1sccc1C)C1CCS(=O)(=O)C1 (stereo unspecified)
→ 4, -3, 13, i, -6, 12, -1, -1
